VDR inh = blocks the human vitamin D receptor. VDR-SRC2-3 peptide fluorescence polarization, 2 h. Potency, µM, for inactives: max response, negative = inhibition, actives largely listed as inhibitors. P11473. AID 504847. actives 0.93% (n = 400,000); active = well fitted inhibition curve with a large enough effect; inconclusive = small, poorly fitted or top-dose-only effect, or another doubt; inactive = no such curve, though single readings can be large or run the other way; also: series mostly up to about 120 µM
Target sequence (P11473 whole entry, looked up): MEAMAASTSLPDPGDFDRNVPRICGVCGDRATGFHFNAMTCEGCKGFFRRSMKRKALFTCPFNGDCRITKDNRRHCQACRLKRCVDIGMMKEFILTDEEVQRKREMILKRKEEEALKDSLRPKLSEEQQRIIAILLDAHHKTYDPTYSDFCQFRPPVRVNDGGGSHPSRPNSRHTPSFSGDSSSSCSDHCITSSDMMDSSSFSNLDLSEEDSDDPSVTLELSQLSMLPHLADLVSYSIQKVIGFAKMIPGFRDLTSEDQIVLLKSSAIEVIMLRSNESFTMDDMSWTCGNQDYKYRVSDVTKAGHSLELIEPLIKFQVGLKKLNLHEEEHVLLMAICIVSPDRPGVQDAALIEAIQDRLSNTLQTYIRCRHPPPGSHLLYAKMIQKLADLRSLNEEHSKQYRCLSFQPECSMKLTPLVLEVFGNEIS
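The screen uses fluorescence polarization to detect compounds that interfere with recruitment of the SRC2-3 coactivator peptide to VDR; plates are read after 2 h at room temperature.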
Numbers without * were called inactive; ? = inconclusive. % is scaled to controls: 0 for no effect and ±100 for the full control effect; potency is read from the fitted curve at half-maximal effect. A portion of the library. The share of hits here may be higher or lower than overall.

SMILES | VDR inh
O=c1ccc2cc(S(=O)(=O)N3CCN(c4ccccc4)CC3)ccc2o1 | -5%
O=C(NCCc1ccccc1)c1cccc(NC(=O)c2ccccc2)c1 | -1%
O=c1[nH]c(=O)n(-c2cc(Br)c(O)c(Br)c2)cc1Br | -6%
O=S(=O)(c1ccc(=S)[nH]c1)N1CCCC1 | ?
COC(=O)c1ccc(Nc2nc(C)cc(C)n2)cc1 | 12%
Cc1cccc(-c2nnc3sc(-c4ccccc4C)nn23)c1 | 7%
CCN(CC)C(C(=O)NC1CCCCC1)c1ccc(C)cc1 (stereo not drawn) | 12%
C/C(=N\OC(=O)c1ccc(F)cc1)c1sc(-c2ccccc2)nc1C | 2%
COc1ccccc1C(=O)NCC(=O)N/N=C/c1cccc(Cl)c1 | -2%
Cc1cc(C(=O)COC(=O)/C=C/c2cccc(F)c2)c(C)n1C | -15%
CCCCOc1ccc(N(CC(=O)NCCOC)C(=O)CCC(=O)Nc2ccccn2)cc1 | 2%
O=C(Cn1ncc2c3ccccc3n(Cc3ccccc3)c2c1=O)NCCCN1CCCC1=O | 8%
O=C(O)c1cccc(CSc2nnc(-c3ccco3)o2)c1 | 14%
Cc1nnc(NC(=O)c2sc3ccccc3c2Cl)s1 | -16%
CCc1ccc(NC(=O)C(C)OC(=O)c2cc(=O)[nH]c3ccc(S(=O)(=O)Nc4ccc(F)cc4)cc23)cc1 (stereo not drawn) | -9%
COc1cc(NC(=O)c2cc(-c3ccccc3Cl)on2)cc(OC)c1OC | -1%
O=C(CNC(=O)C(c1ccccc1)c1ccccc1)N/N=C\c1ccc2c(c1)OCO2 | 2%
COC(=O)Nc1c(C)n(C)n(-c2ccccc2)c1=O | 11%
CSCCC(N=C1NS(=O)(=O)c2ccccc21)C(=O)N1CCCC(C(N)=O)C1 (stereo not drawn) | -8%
COc1cc(OC)c(NC(=O)c2c(N3CCCC3=O)c3cc(C)ccc3n2C)cc1Cl | 13%
CC(=O)c1ccc(NC(=O)CCc2c(C)nn(-c3ccc(N4CCCCC4)nn3)c2C)cc1 | -11%
Cc1ccc(C(=O)NNC2=Nc3cccc4cccc2c34)cc1 | -6%
Cc1ccc(C(=O)COC(=O)CSc2cccc3cccnc23)c(C)c1 | 17%
O=C(CCCOc1ccc(Br)cc1)Nc1ccc(S(=O)(=O)N2CCOCC2)cc1 | 3%
CC(=O)N1CCN(c2nnnn2-c2ccccc2)CC1 | 2%
CCOc1ccc(NS(=O)(=O)c2ccc(C(=O)NCc3cccnc3)cc2)cc1 | -7%
O=C(c1nc(-c2ccc(Cl)cc2)n2c1CCCCC2)N1CCN(c2ccccc2)CC1 | 11%
COc1cc(-c2noc(C3CCCN(S(=O)(=O)c4cccc(Cl)c4)C3)n2)cc(OC)c1OC (stereo not drawn) | 1%
Cc1ccc(NC(=O)CN(C)C(=O)CCOc2cccc(C)c2)cc1 | -10%
CCN1CCN(C(=O)c2ccc(COc3ccc(Cl)cc3)o2)CC1 | -8%
CCCn1nc(C(=O)NNC(=O)CCCOc2ccc(OC)cc2)c2ccccc2c1=O | -17%
Cc1ccc(S(=O)(=O)Nn2c(C)ccc2C)cc1 | 1%
CCOC(=O)[C@@H]1[C@H]2COc3cc(OC)ccc3[C@H]2N2C(=O)N(c3ccc(OC)cc3)C(=O)[C@]12C | 5%
N#CCCN(C(=O)COC(=O)Cc1c[nH]c2ccccc12)c1ccccc1 | -5%
COc1cc(OC)c(OC)cc1CNCCCSc1nnnn1C | 8%
Cc1ccc(C)c(NC(=O)Nc2cccc(-c3cn4cccnc4n3)c2)c1 | 3%
CN(CC(=O)Nc1ccc(Cl)cc1)C(=O)C1CCCC1 | 15%
Cc1ccc(C(=O)N/C(=C/c2ccccc2)C(=O)NCc2ccncc2)cc1 | -18%
O=[N+]([O-])c1cc([N+](=O)[O-])c(N2CCOCC2)cc1NCc1ccccc1 | 8%
Cc1cc(Nc2ccccc2Br)n2nc(C)nc2n1 | -7%
CCC(C(=O)Nc1ccc(C(C)C)cc1)n1nc(C)n2c(cc3cc(C)ccc32)c1=O (stereo not drawn) | 9%
CCOCCCNC(=O)CCc1ccc(-n2cnc3cccnc32)cc1 | 13%
Cc1csc(SCc2c(C(=O)O)oc3ccccc23)n1 | -8%
O=C(NCCc1cccs1)C12CN(Cc3ccccc3)CC1C(c1cccc([N+](=O)[O-])c1)=NO2 (stereo not drawn) | -14%
Cc1nnc(NC(=O)CSc2nnc(-c3ccccc3)n2C)s1 | -5%
FC(F)(F)c1cc(-c2ccccc2)nc2cc(-c3ccccc3)nn12 | -12%
CC(=O)N1CCN=C1SCc1ccc(Br)cc1 | -17%
Cc1oc(-c2ccccc2F)nc1CSCC(=O)NC1CCCC1 | -17%
Cn1nc(C(=O)OCC(=O)Nc2ccc(C(N)=O)cc2)c2ccccc2c1=O | 11%
C/C(=N/NC(=O)CCCOc1ccc(Cl)cc1Cl)c1ccc(C)o1 | 3%
O=C(NCc1c(-n2cccc2)sc2c1CCCC2)Nc1cccc(C(F)(F)F)c1 | 21%
Cc1ccccc1CNCc1cccnc1 | -1%
COc1ccc(CCC(=O)N2CCN(S(=O)(=O)c3cccc(C(F)(F)F)c3)CC2)cc1OC | 13%
OCC1(C2=NOC(O)(C(F)(F)F)C2)CCCCC1 (stereo not drawn) | -8%
O=C(Cn1cnc2cc([N+](=O)[O-])ccc2c1=O)Nc1ccc2c(c1)OCO2 | 1%
CCCOc1ccc(OC(=O)c2sc3ncn(Cc4cccc(F)c4)c(=O)c3c2C)cc1 | 8%

(cont.)
SMILES | VDR inh
COc1ccccc1NS(=O)(=O)c1cc(C(=O)NCC(c2ccc(F)cc2)N2CCOCC2)ccc1C (stereo not drawn) | 7%
CCOc1ccc(NC(=O)C2CCC(C)(C(=O)O)C2(C)C)cc1 (stereo not drawn) | 3%
Cn1c(=O)c(-c2cccs2)nc2cnc(Oc3ccccc3)nc21 | ?
CCC(=O)Nc1cccc(C2=NOC3(C2)C[C@@H](C(N)=O)N(C(=O)C2(C)CC2)C3)c1 (stereo partly drawn) | 12%
CCOC(=O)c1c(C)oc2nc(C)nc(NCc3ccc(C)cc3)c12 | -3%
Cc1[nH]c(=O)c(Cc2ccccc2)c(O)c1C#N | -4%
Cc1cccc(N/N=C/c2ccc(C)s2)c1 | 9%
O=C(Nc1cccc(C(F)(F)F)c1)c1c(O)c2ccccc2[nH]c1=O | -4%
O=C(NCC1CCCO1)c1csc(Nc2cccc3ccccc23)n1 (stereo not drawn) | 11%
Cc1c(NC(=O)Nc2cccc(C(F)(F)F)c2)sc2nc3n(c(=O)c12)CCC(C)CC3 (stereo not drawn) | -14%
Cc1ccc(-c2nn(-c3ccccc3)cc2C2CC(c3cccs3)=NN2C(=O)CCC(=O)O)cc1 (stereo not drawn) | 1%
CCOc1ccc(NC(=S)N(CCc2c(C)[nH]c3ccc(C)cc23)Cc2ccco2)cc1 | 17%
CCC1(CC)SC(N)=NC1=O | 8%
CN(CC1CCCN(CCc2cccc(C(F)(F)F)c2)C1)C(=O)c1ccco1 (stereo not drawn) | 8%
O=C(COc1ccc(Cl)cc1Cl)N(C1CCCCC1)C1CCS(=O)(=O)C1 (stereo not drawn) | -1%
Cc1oc(-c2ccc(C(=O)NCCCOC(C)C)cc2)nc1CS(=O)(=O)c1ccccc1 | 10%
O=S1(=O)C=C(SCc2ccc(F)cc2)Nc2ccccc21 | -5%
Cn1cccc1Cc1nnc(SCC(=O)Nc2cccc(F)c2)n1-c1ccc(F)cc1 | ?
O=C(O)Cc1cc2c(s1)CCCCC2 | -7%
COc1ccccc1NC(=O)Cc1nnc(SCC(=O)Nc2ccccc2F)n1C | ?
O=C(CN1CCN(c2ccccn2)CC1)Nc1nc2ccccc2s1 | -1%
Cc1ccnc(NC(=O)CCC(=O)N(CC(=O)NCCc2ccccc2)Cc2cccs2)c1 | -6%
CCc1ccccc1NC(=O)Cn1c(=O)oc2ccccc21 | 20%
O=C(/C=C/c1ccco1)N1CCN(S(=O)(=O)c2cccc([N+](=O)[O-])c2)CC1 | -15%

Reprinted from the listing for reference:
SMILES | VDR inh
COc1cc(NC(=O)c2cc(-c3ccccc3Cl)on2)cc(OC)c1OC | -1%
O=C(CNC(=O)C(c1ccccc1)c1ccccc1)N/N=C\c1ccc2c(c1)OCO2 | 2%
COC(=O)Nc1c(C)n(C)n(-c2ccccc2)c1=O | 11%
CSCCC(N=C1NS(=O)(=O)c2ccccc21)C(=O)N1CCCC(C(N)=O)C1 (stereo not drawn) | -8%
COc1cc(OC)c(NC(=O)c2c(N3CCCC3=O)c3cc(C)ccc3n2C)cc1Cl | 13%
CC(=O)c1ccc(NC(=O)CCc2c(C)nn(-c3ccc(N4CCCCC4)nn3)c2C)cc1 | -11%
Cc1ccc(C(=O)NNC2=Nc3cccc4cccc2c34)cc1 | -6%
Cc1ccc(C(=O)COC(=O)CSc2cccc3cccnc23)c(C)c1 | 17%
O=C(CCCOc1ccc(Br)cc1)Nc1ccc(S(=O)(=O)N2CCOCC2)cc1 | 3%
CC(=O)N1CCN(c2nnnn2-c2ccccc2)CC1 | 2%
CCOc1ccc(NS(=O)(=O)c2ccc(C(=O)NCc3cccnc3)cc2)cc1 | -7%
O=C(c1nc(-c2ccc(Cl)cc2)n2c1CCCCC2)N1CCN(c2ccccc2)CC1 | 11%
COc1cc(-c2noc(C3CCCN(S(=O)(=O)c4cccc(Cl)c4)C3)n2)cc(OC)c1OC (stereo not drawn) | 1%
Cc1ccc(NC(=O)CN(C)C(=O)CCOc2cccc(C)c2)cc1 | -10%
CCN1CCN(C(=O)c2ccc(COc3ccc(Cl)cc3)o2)CC1 | -8%
CCCn1nc(C(=O)NNC(=O)CCCOc2ccc(OC)cc2)c2ccccc2c1=O | -17%
Cc1ccc(S(=O)(=O)Nn2c(C)ccc2C)cc1 | 1%
CCOC(=O)[C@@H]1[C@H]2COc3cc(OC)ccc3[C@H]2N2C(=O)N(c3ccc(OC)cc3)C(=O)[C@]12C | 5%
N#CCCN(C(=O)COC(=O)Cc1c[nH]c2ccccc12)c1ccccc1 | -5%
COc1cc(OC)c(OC)cc1CNCCCSc1nnnn1C | 8%
Cc1ccc(C)c(NC(=O)Nc2cccc(-c3cn4cccnc4n3)c2)c1 | 3%
CN(CC(=O)Nc1ccc(Cl)cc1)C(=O)C1CCCC1 | 15%
Cc1ccc(C(=O)N/C(=C/c2ccccc2)C(=O)NCc2ccncc2)cc1 | -18%
O=[N+]([O-])c1cc([N+](=O)[O-])c(N2CCOCC2)cc1NCc1ccccc1 | 8%
Cc1cc(Nc2ccccc2Br)n2nc(C)nc2n1 | -7%

The listing picks up, repeating the two entries before the break.
SMILES | VDR inh
CCc1ccccc1NC(=O)Cn1c(=O)oc2ccccc21 | 20%
O=C(/C=C/c1ccco1)N1CCN(S(=O)(=O)c2cccc([N+](=O)[O-])c2)CC1 | -15%
CN(C)CCOCCSc1ccc(Cl)cc1 | -5%
O=C(CCSC1=NCCCN1)c1ccc(F)cc1 | 71µM*
CCOC(=O)N1CCN(C(=O)c2ccc(CSc3ccc(Cl)cc3)cc2)CC1 | -7%
O=C1N(C2CCCC2)C[C@@H]2C[C@@H](c3cccn3-c3ccccn3)N3CCC[C@@]123 | -6%
Cn1c(=O)[nH]c2cc3ccccc3cc21 | 1%
Cc1ccc2ccc3cc(C(=O)Nc4ccc(C)c(F)c4)nc3c2[nH]1 | 8%
COc1ccccc1-c1cncnc1NCc1cccs1 | -12%
COc1ccc(C)cc1S(=O)(=O)NCc1cccs1 | 3%
Cc1ccc(-n2c(Cn3ncc4ccccc4c3=O)n[nH]c2=S)cc1 | -12%
CCN(CC)C(=O)C1(P(=O)(c2ccccc2)c2ccccc2)CCC1 | 12%
O=C(NC(=S)NC(=O)c1ccccc1F)c1ccccc1F | 0%
CC1(C)NC(=O)N(CC(O)CN2C(=O)CCC2=O)C1=O (stereo not drawn) | 8%
COCCCn1c(SCC(=O)NC2CCCC2)nnc1-c1ccco1 | 7%
CC(C)c1ccc(S(=O)(=O)N2CCN(C(=O)C3CCCC3)CC2)cc1 | 1%
CC(=O)N1CCC[C@@]2(CCN(Cc3ccc(C#N)cc3)C2)C1 | ?
Nc1nc(=S)c2[nH]c(=S)[nH]c2[nH]1 | -23%
Cc1ccc(CSCC(=O)N2CCN(c3ccccc3)CC2)cc1 | -16%
CCOc1ccccc1NC(=O)c1cc(S(=O)(=O)N2CCN(CC)CC2)ccc1Cl | -6%
Cc1cn([C@@H](CCCCN)C(=O)NCCCCCCCCCCC(=O)N2CCNCC2)nn1 | -10%
O=C(NC1CCN(Cc2ccc(Cl)cc2Cl)CC1)c1ccccc1 | 1%
CCOC(=O)c1c(S(=O)(=O)N2CCCC(C(=O)Nc3cccc(Cl)c3)C2)c(C)n(C)c1C (stereo not drawn) | 23%
Cc1ccc(CNC(=O)Cn2nnc(C(=O)Nc3ccc(Br)cc3)c2N)cc1 | -3%
Cc1nc2ccccc2cc1C(=O)NCc1ccc(F)cc1 | -17%
Cc1cccc(C)c1OCC(=O)NNC(=O)CCCn1c(=O)oc2ccccc21 | 14%
COCCn1c(CNC(=O)c2cccc(N(C)C)c2)nc2cccnc21 | 7%

Bioassay records as filed in PubChem BioAssay.
